Screening results: PubChem, National Center for Advancing Translational Sciences (NCATS)
D2 potentiator: Beta-Arrestin HTS for Positive Allosteric Modulators of the Human D2 Dopamine Receptor: Potentiators | DiscoveRx D2 beta-arrestin cells, luminescence, 90 min; 100% = 57 uM dopamine signal | D(2) dopamine receptor (Homo sapiens), P14416 | hit rate 0.23% among 360,000 | potentiation, % (concentration not given with the values); active = potentiation of 50% or more; inconclusive = 30% to 50%; inactive = 30% or less;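 further: compound concentration not given in the record; tested on top of an EC20 dose of dopamine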
Target sequence (P14416 whole entry, looked up): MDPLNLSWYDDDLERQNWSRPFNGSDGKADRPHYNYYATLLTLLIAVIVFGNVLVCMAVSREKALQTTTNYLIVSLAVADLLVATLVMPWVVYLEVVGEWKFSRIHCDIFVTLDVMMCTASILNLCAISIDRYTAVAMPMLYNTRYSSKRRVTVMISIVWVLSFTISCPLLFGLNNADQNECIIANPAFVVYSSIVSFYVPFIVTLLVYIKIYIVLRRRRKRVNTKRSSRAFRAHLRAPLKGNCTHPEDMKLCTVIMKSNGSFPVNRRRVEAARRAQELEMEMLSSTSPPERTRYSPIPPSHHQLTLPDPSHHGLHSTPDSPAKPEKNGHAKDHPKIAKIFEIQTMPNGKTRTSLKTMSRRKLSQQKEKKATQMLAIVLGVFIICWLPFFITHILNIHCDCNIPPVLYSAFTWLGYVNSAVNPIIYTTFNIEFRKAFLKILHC
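D2 cells co-treated with compound plus 50 nM dopamine (EC20) for 90 min at 37 deg C to detect potentiation. Beta-arrestin recruitment was read as enzyme-fragment luminescence after 1 h at ambient temperature. Full response was set by 57 uM dopamine.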
TRPML1 ag: qHTS for Agonists of the Human Mucolipin Transient Receptor Potential 1 (TRPML1) | TRPML1-expressing cells, Ca2+ dye fluorescence, FDSS; host cell line not named in the record; reference of the full effect not given here | activation, % (no concentration beside the values) | AID 624414, 2012 | hit rate 0.12% among 410,000 | Mucolipin-1 (Homo sapiens), Q9GZU1; in the data active = activation above about 50%; inconclusive = about 30% to 50%; inactive = below about 30%; further: 0% is about no effect; the text of the record puts the active cut at 80%
Target sequence (Q9GZU1 whole entry, looked up): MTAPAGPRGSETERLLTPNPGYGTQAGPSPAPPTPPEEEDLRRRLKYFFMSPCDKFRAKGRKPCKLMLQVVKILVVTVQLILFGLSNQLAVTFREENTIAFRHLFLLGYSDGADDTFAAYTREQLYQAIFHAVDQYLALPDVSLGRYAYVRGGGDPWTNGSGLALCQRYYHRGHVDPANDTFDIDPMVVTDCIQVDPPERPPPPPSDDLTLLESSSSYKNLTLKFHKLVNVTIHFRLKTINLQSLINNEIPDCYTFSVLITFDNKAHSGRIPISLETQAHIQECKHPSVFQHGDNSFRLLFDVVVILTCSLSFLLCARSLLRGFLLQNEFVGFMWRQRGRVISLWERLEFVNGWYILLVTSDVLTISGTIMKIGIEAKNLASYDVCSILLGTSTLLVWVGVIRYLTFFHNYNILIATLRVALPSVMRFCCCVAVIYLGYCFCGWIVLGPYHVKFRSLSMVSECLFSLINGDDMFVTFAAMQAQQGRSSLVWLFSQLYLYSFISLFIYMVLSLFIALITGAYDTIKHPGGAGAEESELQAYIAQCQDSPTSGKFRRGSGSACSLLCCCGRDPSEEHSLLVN
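In this qHTS format, compounds were pin-transferred onto Ca8-dye-loaded TRPML1-DL cells induced with Tet overnight, and intracellular Ca2+ fluorescence was recorded kinetically for 110 s after a 10 s baseline. A subsequent 4uM final 54-4 (EC80) addition followed by a second 110 s read served as the antagonist phase.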
CtBP-E1A inh: qHTS Assay for Inhibitors of the CtBP/E1A Interaction; activity change, % (test concentration not listed); CtBP / adenovirus E1A interaction (AlphaScreen); AlphaScreen GST-E1A/His-CtBP binding, 1536-well; stronger effect = lower value; control for the full effect not named in the record; hit rate 0.49% among 340,000; AID 651724, 2012; in the data active means activity change below about -65%; inconclusive means about -30% to -65%; inactive means above about -30%; further: on the % scale 0 is the no-effect control and ±100 the full control effect; compound concentration not given in the record
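Steps: dispense buffer (Tris pH 8.0, NaCl 300 mM, TCEP 1 mM, BSA, Tween 20); add 5X protein mix (GST-E1A, His-CtBP, 125 nM each); pin 23 nL compound; 2 h at 37 °C, dark; add 5X beads (50 ug/mL); 1 h; read.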
PINK1 modulator: A Quantitative High throughput Screen to Identify Chemical Modulators of PINK1 Expression; PINK1 immunofluorescence, high-content cytometry, 24 h; Potency, µM (doses to about 76.6 µM), for the others: top-dose activation (PINK1 increase), most hits filed as activators; hit rate 0.2% among 410,000; active = well fitted activation curve with a large enough effect; inconclusive = small, poorly fitted or top-dose-only effect; inactive = flat fitted curve, though single readings scatter; cell line not stated here;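 further: potency means the concentration at half of the fitted maximal effect; % of control where 0% means no effect; nearly all actives have a fitted effect of over 65% in size; a mitochondrial uncoupler was the plate control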
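Cells are seeded, rested 12 hours, then given compound at five concentrations or DMSO for 24 hours. After fixation, blocking and antibody staining, PINK1 amount and mitochondrial localization are scored; CCCP serves as control.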
D2 agonist: Beta-Arrestin HTS for Positive Allosteric Modulators of the Human D2 Dopamine Receptor: Agonists; D(2) dopamine receptor (Homo sapiens), P14416; DiscoveRx PathHunter D2 beta-arrestin, luminescence, 90 min; 100% = 57 uM dopamine signal; activation, % (concentration not given with the values); hit rate 0.084% among 360,000; in the data active = activation above about 40%; inconclusive = about 15% to 40%; inactive = below about 15%; further: compound concentration not given in the record; the text of the record calls up to 30% inactive
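Agonist mode: compounds alone added to overnight-plated D2 PathHunter cells for 90 min at 37 C, with 57 uM final dopamine (EC100) defining full response. Beta-arrestin recruitment detected by chemiluminescent reagent, read after 1 h at ambient temperature.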
Six1-Eya2 blk: qHTS Assay for Inhibitors of the Six1/Eya2 Interaction. Homeobox protein SIX1 (Homo sapiens) + Protein phosphatase EYA2 (Homo sapiens), …. AlphaScreen GST-Six1/His-Eya2 binding, biochemical; stronger effect = lower value; control for the full effect not named in the record. activity change, % (test concentration not listed). hit rate 0.56% among 360,000; in the data active = activity change below about -65%; inconclusive = about -30% to -65%; inactive = above about -30%; further: on the % scale 0 is the no-effect control and ±100 the full control effect; compound concentration not given in the record
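Compounds are tested against tagged Six1 and Eya2 proteins bridged by glutathione donor and nickel acceptor beads; after a one-hour incubation at 37 °C without light, AlphaScreen emission is recorded.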
* hit, by the source's call; ? = inconclusive; nt = no result given; [ ] = remark or other dose. An unsorted share of the library; any-hit rate near 1.3%.

SMILES	D2 potentiator	TRPML1 ag	CtBP-E1A inh	PINK1 modulator	D2 agonist	Six1-Eya2 blk
CC(C)(C)c1cc(NC(=O)c2ccco2)no1	-11	0.8	1	1.5%	4.8	4
Cc1ccc(C)c(NC(=O)c2ccc[n+](Cc3ccc([N+](=O)[O-])cc3)c2)c1	-27	0.5	-13	-1.5%	-3.1	1
Cc1ccc2nsnc2c1NC(=O)CCl	-9	-0.3	-14	6.3%	-4.3	23
CC(OC(=O)c1ccccc1Oc1ccccc1)C(=O)NC1CC1 (stereo not given)	-11	0.9	nt	4.1%	-2.2	2
CCn1cc(CN2CCN(C)C(CCO)C2)c2ccccc21 (stereo not given)	-4	-0.6	-1	2.4%	6.8	-2
COc1cccc(NC(=O)COc2ccc(C)cc2)c1	-2	1.0	16	4.4%	1.4	-1
COc1cc(C(O)c2nc(/C=C/c3ccc(C(F)(F)F)cc3)cs2)ccc1F (stereo not given)	-6	2.5	-21	-1.6%	5.0	12
COc1cc(CNCCCN2CCOCC2)c(Br)cc1OCC(=O)Nc1ccccc1C	-10	0.2	-3	-0.8%	1.0	4
CCC1=NN(C(=O)c2ccccc2Br)C(O)(c2ccc(Br)cc2)C1 (stereo not given)	-22	0.3	nt	-1.5%	2.5	7
COc1ccc(-c2oc(/N=C/N3CCCC3)c(C#N)c2-c2ccc(OC)cc2)cc1	0	0.5	-17	0.4%	-3.8	-22
COc1ccc2c(C)c(C(=O)NCC(C)O)oc2c1OC (stereo not given)	-30	0.3	3	1.0%	0.6	8
COc1ccc2[nH]c(C(=O)O)c(NC(=O)c3ccccc3[N+](=O)[O-])c2c1	-3	0.8	4	-0.8%	-2.9	2
COc1cccc(C(=O)NC2CCN(CC(=O)NCc3ccccc3OC)CC2)c1	-12	0.0	-1	-2.9%	-0.7	2
COc1cccc(CN2CCC(n3nccc3NC(=O)CCOc3ccccc3)CC2)c1O	4	0.5	-10	0.4%	2.4	-2
CC1CCC(C(O)(C(=O)O)C2CCCCC2)CC1C (stereo not given)	-6	0.7	-2	-4.8%	-2.8	9
COc1ccc(CNS(=O)(=O)NCc2ccc(C)cc2)cc1	2	-0.6	3	4.4%	4.0	-1
C=CCn1c(SCC(=O)Nc2c(C)n(C)n(-c3ccccc3)c2=O)nc2ccccc2c1=O	1	-0.2	5	0.4%	-1.1	6
CC(C)C(C)(C#N)NC(=O)CSc1nncn1-c1ccccc1 (stereo not given)	2	0.3	22	-1.3%	-3.7	31
O=C(/C=C/c1ccc(Cl)cc1)N1CCN(c2ccc([N+](=O)[O-])c(N3CCOCC3)c2)CC1	2	1.9	-2	-1.1%	4.0	-4
Cc1ccccc1C(=O)N1CCN(c2ccc([N+](=O)[O-])c(NCc3ccco3)c2)CC1	-12	0.7	-10	-1.1%	-1.3	-27

Seven of the compounds above, in CSV form:
canonical_smiles,D2 potentiator,TRPML1 ag,CtBP-E1A inh,PINK1 modulator,D2 agonist,Six1-Eya2 blk
COc1cccc(C(=O)NC2CCN(CC(=O)NCc3ccccc3OC)CC2)c1,-12,0.0,-1,-2.9%,-0.7,2
COc1cccc(CN2CCC(n3nccc3NC(=O)CCOc3ccccc3)CC2)c1O,4,0.5,-10,0.4%,2.4,-2
CC1CCC(C(O)(C(=O)O)C2CCCCC2)CC1C (stereo not given),-6,0.7,-2,-4.8%,-2.8,9
COc1ccc(CNS(=O)(=O)NCc2ccc(C)cc2)cc1,2,-0.6,3,4.4%,4.0,-1
C=CCn1c(SCC(=O)Nc2c(C)n(C)n(-c3ccccc3)c2=O)nc2ccccc2c1=O,1,-0.2,5,0.4%,-1.1,6
CC(C)C(C)(C#N)NC(=O)CSc1nncn1-c1ccccc1 (stereo not given),2,0.3,22,-1.3%,-3.7,31
O=C(/C=C/c1ccc(Cl)cc1)N1CCN(c2ccc([N+](=O)[O-])c(N3CCOCC3)c2)CC1,2,1.9,-2,-1.1%,4.0,-4

Following part:
SMILES	D2 potentiator	TRPML1 ag	CtBP-E1A inh	PINK1 modulator	D2 agonist	Six1-Eya2 blk
COc1ccc(CNC(=O)CSc2nc3nc(C)cc(C)n3n2)cc1	-11	0.3	-1	-0.9%	-4.0	3
COc1cccc(NC(=O)C(c2ccccc2)N2CCN(c3ccccn3)CC2)c1 (stereo not given)	-41	0.7	-3	1.0%	-3.5	0
O=C(Nc1ccc([N+](=O)[O-])cn1)C1CCCCC1	-15	0.3	5	-1.6%	2.7	8
CCn1ncc(C2=NOC(C(=O)NCC(C)C)C2)c1C (stereo not given)	-9	1.4	5	-1.2%	0.2	2
COc1cccc(C(=O)O/N=C(\N)Cc2ccc(Cl)cc2)c1	125*	-1.7	7	-3.0%	?	8
CCOc1ccc(C(=O)NCc2ccco2)cc1Cl	1	0.4	3	-0.7%	-6.1	-6
COC(=O)c1c(NC(=O)c2ccccc2OC)sc(C(=O)N2CCOCC2)c1C	-3	2.5	-1	0.0%	0.3	3
COc1cccc(CC2(CO)CCCN(Cc3[nH]c4ccc(C)cc4c3C)C2)c1 (stereo not given)	-30	nt	?	-1.4%	2.9	-25
Nc1nncn1C(=O)c1ccccc1Cl	-2	1.0	6	-0.9%[38.3 µM]	0.0	-1
COc1ccc(C2CC(c3ccccc3)=NN2C(=O)COC(=O)c2nc3nccc(C)n3n2)cc1 (stereo not given)	0	1.0	-1	0.0%	-18	-5
N#CC1(NC(=O)COc2ccc(S(=O)(=O)N3CCCC3)cc2[N+](=O)[O-])CCCCC1	-7	-0.4	0	1.0%	1.3	-5
CCCC(C(=O)NCC1CCCO1)N(Cc1ccco1)C(=O)CNS(=O)(=O)c1ccc(F)cc1 (stereo not given)	-2	-0.9	-2	-1.9%	-0.9	-7
Cc1ccc(C(C)(C)NC(=O)C2CCC(=O)N(Cc3ccccc3F)C2)cc1 (stereo not given)	-6	-0.2	5	0.1%	0.1	-1
Cc1ccc([N+](=O)[O-])cc1S(=O)(=O)N(C(=O)c1ccncc1)c1ccc2oc3c(c2c1)CCCC3	5	-0.1	-16	11%	2.5	-23
COc1ccc(OC)c(NC(=O)COc2ccc(S(=O)(=O)N3CCCC3)cc2)c1	-4	-0.4	-8	1.1%	1.4	-7
Cc1cc(C)c(OCC(=O)OCC(=O)NC2CCC(C)CC2)c(C)c1 (stereo not given)	8	-0.1	3	-1.3%	0.7	-1
COc1cccc(NS(=O)(=O)c2cc(C)sc2C)c1	-2	2.3	4	4.4%	?	16
Cc1ccccc1C(=O)NC(NC(=S)Nc1ccc(S(N)(=O)=O)cc1)C(Cl)(Cl)Cl (stereo not given)	-24	-0.7	-16	0.7%	-3.3	-2
CN(C)CCNC(=O)NC(=O)c1ccc(Cl)cc1	-8	-0.6	11	-2.0%	-1.5	1
COc1cc(CN2CCCCCC2)cc(OC)c1O	-4	-0.7	nt	2.4%	4.6	7
COc1cc(C(=O)OCC(=O)NC2CC2)cc(OC)c1OC	-1	-0.2	8	-0.3%	-0.1	-1
C=C(C)CNC(=S)Nc1cccc(S(=O)(=O)NC2=NCCC2)c1	0	-0.6	2	1.0%	-6.1	3
Cc1ccc(CNCc2ccccc2Cl)cc1	-35	0.0	-2	-1.2%	-3.6	72
O=C(Cc1ccc(S(=O)(=O)N2CCOCC2)s1)N1CCN(c2ccc(C(F)(F)F)cc2[N+](=O)[O-])CC1	0	1.5	-6	-2.3%	-1.3	-23
Cc1ccc(C(=O)OCC(=O)NCc2ccc(Cl)cc2)s1	-15	-1.1	6	0.3%	-2.9	7
COc1ccc(S(=O)(=O)NCC(=O)NC2CC2)cc1OC	-13	0.7	-17	0.3%	-0.9	0
Brc1cnc(N2CCOCC2)nc1N1CCCCC1	0	-0.2	10	0.7%[38.3 µM]	0.2	7
CCOC(=O)CNC(=O)CSc1nc(C)cc(C)c1C#N	8	-0.3	6	1.0%	-2.8	-1
Cc1ccc(S(=O)(=O)N(CCCO)CC(O)CON=C2c3ccccc3-c3ccccc32)cc1 (stereo not given)	-21	0.0	-2	-1.8%	-2.0	-12
CCOC(=O)C1(CCOc2ccccc2)CCN(Cc2cc(OC)c3c(c2)OCO3)CC1	-16	1.2	-16	27%	4.2	-19
Cc1ccccc1CC(=O)N1CCCC1	-15	nt	nt	4.3%	-0.8	4
CCCCOc1ccc(C(=O)Oc2cc(C)[nH]c(=O)c2[N+](=O)[O-])cc1	-1	0.3	nt	-0.5%	-6.3	5
CCOC(=O)C1(Cc2cccc(OC)c2)CCN(Cc2cccnc2)CC1	-8	0.0	2	0.2%	-2.8	1
CN(Cc1ccc(Cl)s1)C(=O)CNC(=O)CNC(=O)c1ccc(Cl)cc1Cl	0	1.3	21	0.4%	-2.8	13
COc1ccc(NS(=O)(=O)c2cc3c(cc2C)N(C)CCO3)c(OC)c1	0	-0.5	-26	1.5%	-2.2	-26
COC(=O)c1cc(=O)nc2sc(-c3ccc(F)cc3)nn12	-4	0.1	9	-5.6%[38.3 µM]	-3.7	4
O=Cc1ccc(-c2cc(Cl)ccc2Cl)[nH]1	-15	1.0	-2	0.5%	-4.8	-1
O=C(CCC(=O)NC1CCCCC1)N/N=C/c1ccncc1	-9	0.3	nt	-1.1%	-2.0	0
O=C(O)c1c(-c2ccccc2)nnc2ccccc12	-10	-0.1	1	3.7%	-2.8	6
COc1ccc(-c2cc(C(=O)NCC3CCCO3)c3ccccc3n2)cc1 (stereo not given)	-6	3.7	5	-0.8%	2.4	10
O=C(c1ccc(Cn2cnnn2)cc1)N1CCCC(Nc2ccc(F)cc2)C1 (stereo not given)	0	0.6	2	1.0%	6.4	-20
O=C(COC(=O)c1cnccn1)Nc1ccc2c(c1)OCO2	-10	-0.8	-6	-0.6%	0.2	5
O=C(Cc1cccc(NC(=O)C2CCN(C(=O)c3ccccc3)CC2)c1)Nc1cccc(C(=O)N2CCOCC2)c1	5	1.4	5	-0.7%	0.3	6
CC(NC(=S)Nc1ccc(Cl)cc1)C(c1ccccc1)N1CCOCC1 (stereo not given)	-1	0.9	7	-0.7%	0.5	-7
COc1cc(C(C2=C(O)CC(C)(C)CC2=O)C2C(=O)CC(C)(C)CC2=O)cc(OC)c1OC (stereo not given)	-5	2.1	-19	1.9%	-0.9	-3
CC(=O)Nc1ccc(NC(=O)CSc2nnc(-c3cccs3)n2C)cc1	-2	0.9	0	1.8%	-3.3	-2
COc1ccccc1CNC(=O)COC(=O)C1CCN(S(=O)(=O)c2ccccc2)CC1	-3	0.0	1	-0.1%	-5.3	3
Nc1nc(Cn2nnc(-c3ccccc3Cl)n2)nc(N2CCOCC2)n1	-2	0.3	3	-3.4%	-3.7	-3
Nc1cn(C2OC(CO)C(O)C2O)c(=O)[nH]c1=O (stereo not given)	-2	1.5	-3	1.6%	-5.3	0
